# Screening data as filed in PubChem BioAssay.
# HPGD block: blocks human HPGD enzyme activity. P15428. 150,000 tested, 4.3% active. purified HPGD, NADH fluorescence kinetic, PGE2 substrate. AID 894. Potency, µM, for inactives: top-dose activity change, negative = inhibition, usual class: inhibitors; active = well fitted inhibition curve with a large enough effect (not every such curve was filed as active); inconclusive = small, poorly fitted or top-dose-only effect, or another doubt; inactive = no such curve, though single readings can be large or run the other way;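 further: top concentration of the series not given in the record; plate controls included wells without enzyme; inactives centre near -10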
# Target sequence (P15428 whole entry, looked up): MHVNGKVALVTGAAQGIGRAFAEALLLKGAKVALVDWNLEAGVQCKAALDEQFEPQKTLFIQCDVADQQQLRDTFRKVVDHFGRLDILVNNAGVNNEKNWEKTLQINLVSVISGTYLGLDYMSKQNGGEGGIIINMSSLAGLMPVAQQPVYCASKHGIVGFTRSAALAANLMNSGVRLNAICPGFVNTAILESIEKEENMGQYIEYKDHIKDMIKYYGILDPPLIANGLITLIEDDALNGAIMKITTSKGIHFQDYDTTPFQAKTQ
#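 NADH formation kinetics: reaction with 30 uM PGE2 and 1 mM NAD+ (final), 20 nM enzyme, Tris-HCl pH 8 with Tween 20, after 15 min compound preincubation at room temperature. Fluorescence change, last versus first of five reads.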
# The depositor's hits bear a star; u = inconclusive. On the % scale 0 is the no-effect control and ±100 the full control effect; potency means the concentration at half of the fitted maximal effect. The list is partial; rates above refer to the full screens.
HPGD block,structure
-9.8%,C=CCOc1ccc(CC(=O)O)cc1Cl
-7.7%,O=C(Oc1cccc2cccnc12)c1cccs1
-13.8%,COc1cccc(-c2nnn(CCC(=O)O)n2)c1
5.4%,O=C(CSc1nnc(COc2ccc(Cl)cc2)o1)N1CCN(c2ccccc2)CC1
-2.1%,Cc1ccc(/C(C#N)=C/c2cccc([N+](=O)[O-])c2)cc1
u,O=C(CSc1ncn(-c2ccccc2)n1)N1CCc2ccccc21
-15.1%,COc1ccc2c3c(cccc13)N(C)N=C2C
-3.9%,O=C(c1ccccc1)N1CCC(O)(c2ccc3c(c2)OCO3)CC1
-10.8%,O=C(Nc1ccccn1)C(F)(F)C(F)(F)C(F)(F)C(F)(F)C(=O)Nc1ccccn1
-11.9%,CC(Oc1ccccc1)c1ccnc2nc(/N=C/N(C)C)nn12 (stereo unspecified)
-19.0%,Nc1ccc2c(c1)CC(=O)c1ccccc1S2
-11.4%,O=C(O)c1cc(NCc2ccc(F)cc2)ccc1N1CCOCC1
-3.4%,c1cc2nncn2nc1N1CCCC1
-2.9%,CCCN(C(=S)Nc1ccccc1)C1CCS(=O)(=O)C1 (stereo unspecified)
-22.0%,CCOc1ccc(C(=S)N2CCCC2)cc1
-6.1%,COc1ccc(Nc2cc(C(=O)NCCCN3CCOCC3)c3ccccc3n2)c(OC)c1
-5.6%,CC1(C)Cc2c(c(N3CCOCC3)nc3snc(NC(=O)c4ccccc4)c23)CO1
-3.1%,CC(C)c1ccc(C(=O)NNC(=O)C2CC=CCC2C(=O)O)cc1 (stereo unspecified)
-14.6%,Cn1/c(=N/NC(=O)c2cccc(OC(F)F)c2)sc2ccccc21
-5.2%,Cc1ccc(SCc2nc(-c3ccccc3)no2)cc1
u,COc1ccc2nc(SCc3ccccc3)nc(C)c2c1
-21.9%,Cc1cc(C)n(-c2nc(SCCN(C)C)c3c4c(sc3n2)COC(C)(C)C4)n1
22.4µM*,COCCNC(=O)c1ccc2ccccc2n1
u,COc1ccc(-c2nnn(CC(=O)NCc3cccs3)n2)cc1OC
-7.9%,CN(Cc1ccccc1)Cn1ccnc1
-4.1%,COc1ccc(OC)c(NC(=S)NN2CCN(C)CC2)c1
4.47µM*,O=C(COc1ccccc1)Nc1cccc(-c2nnc(-c3ccccc3)o2)c1
-14.0%,Cc1cccc(NC(=O)C2CCCN2C(=O)Oc2ccccc2)c1 (stereo unspecified)
-8.4%,CC1CC(C(F)(F)F)n2ncc(C(=O)O)c2N1 (stereo unspecified)
-0.8%,CCOC1OC2C(CO)OC(n3cnc4c(N)ncnc43)C2O1 (stereo unspecified)

# Exported as labelled records: 4 of the compounds above.
> COc1ccc2nc(SCc3ccccc3)nc(C)c2c1
  HPGD block = u
> Cc1cc(C)n(-c2nc(SCCN(C)C)c3c4c(sc3n2)COC(C)(C)C4)n1
  HPGD block = -21.9%
> COCCNC(=O)c1ccc2ccccc2n1
  HPGD block = 22.4µM*
> COc1ccc(-c2nnn(CC(=O)NCc3cccs3)n2)cc1OC
  HPGD block = u

# New compounds follow
HPGD block,structure
-9.4%,CCCOc1ccc([C@@H]2C3CN(C(=O)OCC)CC=C3C(C#N)=C(N)C2(C#N)C#N)cc1OC (stereo partly specified)
-17.3%,CC(C)COc1cccc(C(=O)Nc2ccc(S(=O)(=O)N3CCOCC3)cc2)c1
-17.3%,CCCS(=O)(=O)c1c(S(=O)(=O)CCC)c2cc(CC)ccn2c1C(=O)OC
-8.4%,CCSc1nnc(NC(=O)CSc2nc3c(c(=O)n2C)SC(C)C3)s1 (stereo unspecified)
-27.2%,Cc1nn(-c2ccccc2)c2c1C1(C(=O)N3c4c(cccc41)C(C)CC3(C)C)C(C#N)=C(N)O2 (stereo unspecified)
u,COc1ccc2nc(/N=C(\N)NC(=O)N3c4ccccc4Sc4ccccc43)nc(C)c2c1
-9.4%,C=C1C(=O)OC2C[C@@]3(C)CCCC(C)C3=CC12 (stereo partly specified)
-9.4%,Cc1ccc(N2C(=O)CC(n3ccnc3)C2=O)cc1C (stereo unspecified)
u,CN(Cc1cnc2nc(N)nc(N)c2n1)c1ccc(C(=O)N[C@H](CCC(=O)O)C(=O)O)cc1
u,CCCCn1nc2cc(C(=O)NCc3ccccc3OC)ccc2c1OCC
-24.1%,Cc1c(C(=O)Nc2nnc(C(F)(F)F)s2)oc2ccccc12
-9.2%,COc1ccc(OC)c(C2C(C(=O)c3cccs3)=C(O)C(=O)N2CCN(C)C)c1 (stereo unspecified)
-3.7%,Cc1ccc(CNC(=O)C2c3ccccc3C(=O)N(C)C2c2c[nH]c3ccccc23)o1 (stereo unspecified)
-11.0%,CC(C)CNC(=O)C(=O)NN=C1CCCCCC1
-5.0%,COCC(=O)N1CCC[C@@]2(CCN(Cc3ccc(C#N)cc3)C2)C1
-10.9%,CC1=CCC2C(=O)N(c3ccc(C)cc3)C(=O)C2C1 (stereo unspecified)
-17.4%,N/C(=N\OC(=O)COc1ccc(Br)cc1)c1cccnc1
-4.1%,CC1CC(NC(=O)C2(C)CC2(Cl)Cl)CC(C)(C)C1 (stereo unspecified)
u,COCCn1c(=NC(=O)c2ccco2)sc2cc(C(=O)OC)ccc21
-18.2%,COC(=O)c1ccc(Oc2nc3c(c(=O)n(C)c(=O)n3C)n2CCC(C)C)cc1
u,CCCCc1ccc(NC(=O)CSC2=C(C#N)C(c3ccco3)C3=C(CCCC3=O)N2)cc1 (stereo unspecified)
-8.8%,Cc1cc(C)cc(-n2c(C)cc(/C=N\NC(=O)COc3cccc4cccnc34)c2C)c1
-13.9%,COc1nc(N/N=C/c2ccc(-c3ccccc3[N+](=O)[O-])o2)nc(N2CCOCC2)n1
3.1%,COc1cc(NC(=O)CN2CCN(Cc3ccc4c(c3)OCO4)CC2)cc(OC)c1
-17.5%,CCOc1ccccc1NC(=O)c1ccc(S(=O)(=O)N(C)C)cc1
-6.9%,COc1ccc(/C=N/NC(=O)c2ccc(=O)[nH]n2)cc1OC
-8.0%,CC(=O)c1cnc(Nc2nc(C)c3cccc(C)c3n2)nc1C
-26.4%,C/C(=C\C(=O)c1ccc(Cl)cc1)NCc1ccc2c(c1)OCO2
3.5%,CC1CCCCN1C(=O)Cn1c(=O)oc2ccccc21 (stereo unspecified)
u,C=CCn1c(SCc2c(C(=O)OC)sc(N)c2C(=O)OC)nnc1-c1ccc(Br)cc1

# Following part.
HPGD block,structure
-15.1%,Cc1cc(C)n(S(=O)(=O)c2ccc(Cl)c(Cl)c2Cl)n1
1.7%,CC(=O)NS(=O)(=O)c1ccc(NC(=O)c2ccc(Br)o2)cc1
-14.5%,O=C(Nc1cccc(C(F)(F)F)c1)C1CCCN(S(=O)(=O)c2cnc[nH]2)C1 (stereo unspecified)
-8.3%,CCCCC(=O)Nc1ccc(C(N)=O)cc1
-11.1%,Cc1ccc(C(=O)NCCN2CCOCC2)cc1
-15.1%,CCSc1cc(C)nc2ncnn12
-14.2%,CNC(=S)N/N=C(\C)c1ccc(C(C)(C)C)cc1
-6.5%,CC1Cc2ccccc2N1C(=O)c1cnc2ccccn2c1=O (stereo unspecified)
-2.8%,O=C(CN(CC1CCCO1)C(=O)CCC(=O)Nc1nccs1)NCc1ccccc1 (stereo unspecified)
u,O=C(/C=C/c1ccco1)NC(=S)Nc1cc(-c2nc3ccccc3s2)ccc1Cl
-7.2%,COc1ccccc1CNc1nc2nc3c(c(=O)n2[nH]1)CCC3
-10.8%,CCC(NC(=O)N(Cc1ccccc1)Cc1ccc2c(c1)OCO2)(C(F)(F)F)C(F)(F)F
-1.3%,COc1ccccc1NC(=O)CSCc1nc2ccccc2[nH]1
-17.2%,COCCn1c(C)cc(C(=O)COC(=O)c2cc3c(s2)CCC3)c1C
-0.7%,CC[C@@H](C)[C@H](NS(=O)(=O)c1ccc(C)cc1)C(=O)N1CCC(C(=O)NCC(=O)O)CC1
-19.8%,CN(CC(=O)NCc1ccco1)S(=O)(=O)c1ccc2c(c1)n(C)c(=O)c(=O)n2C
-7.9%,COc1ccc(Nc2nc(N3CCCC3)c3ccccc3n2)cc1
-10.3%,COCCCNC(=O)c1ccccc1NS(=O)(=O)c1ccc(C)cc1
-1.1%,C[C@H]1Cc2c(COc3ccccc3)nc3c(c2CO1)CN(C(=O)NCc1ccco1)CC3
-0.5%,O=C(Nc1ccccn1)c1onc2c1CCCC2
u,COC(=O)c1cc2ccccc2oc1=O
u,Cc1nc(NCc2ccco2)c(C#N)c2c1COC(C)(C)C2
-9.9%,Cc1c(NC(=O)C(=O)/C=C(/O)c2ccccc2)c(=O)n(-c2ccccc2)n1C
-8.6%,Cc1cc2cc(CN(Cc3cccs3)Cc3nnnn3CC3CCCO3)c(=O)[nH]c2cc1C (stereo unspecified)
-29.2%,CCC(CC)C(=O)Nc1c2cnn(-c3ccccc3)c2nc(=O)n1-c1ccccc1
-8.2%,CCOC(=O)N1CCC(NS(=O)(=O)c2ccc3c(c2)C(C)(C)C(=O)N3C)CC1
-7.4%,Cc1ccc(SCc2ccc(C(=O)Nc3cccc([N+](=O)[O-])c3C)cc2)cc1
-11.1%,COc1ccc(NC(=O)c2ccco2)cc1NC(=O)c1c(F)c(F)c(OC)c(F)c1F
-4.0%,O=C1c2ccccc2CC[C@H]1CNCCc1ccc(O)cc1
u,O=S(=O)(Cc1ccc(Cl)cc1)c1ccccc1-c1nnc(-c2ccccc2)o1

# Quoted at random: 6 entries already listed, in no set order.
HPGD block,structure
u,O=C(/C=C/c1ccco1)NC(=S)Nc1cc(-c2nc3ccccc3s2)ccc1Cl
-15.1%,Cc1cc(C)n(S(=O)(=O)c2ccc(Cl)c(Cl)c2Cl)n1
-8.6%,Cc1cc2cc(CN(Cc3cccs3)Cc3nnnn3CC3CCCO3)c(=O)[nH]c2cc1C (stereo unspecified)
u,O=S(=O)(Cc1ccc(Cl)cc1)c1ccccc1-c1nnc(-c2ccccc2)o1
-2.8%,O=C(CN(CC1CCCO1)C(=O)CCC(=O)Nc1nccs1)NCc1ccccc1 (stereo unspecified)
-11.1%,Cc1ccc(C(=O)NCCN2CCOCC2)cc1

# (further entries)
HPGD block,structure
u,Cc1nn(C(C)C(=O)O)c(=O)c2c1sc1ccccc12 (stereo unspecified)
13.9%,Cc1ccc(NC(=O)CN2C(=O)S/C(=C\c3cccn3C)C2=O)cc1
-13.8%,COc1ccc(NS(=O)(=O)c2ccc(NS(=O)(=O)c3ccc(SC)cc3)cc2)c(OC)c1
-7.7%,CN1C(=O)N(CN2CCCCC2)C2C1N(C)C(=O)N2CN1CCCCC1 (stereo unspecified)
-17.0%,CCCCC(=O)NS(=O)(=O)c1ccc(N=NN2CCCCC2)cc1
-10.2%,O=C1CC(=O)C(n2cncn2)C(c2cccc(Cl)c2)C1 (stereo unspecified)
-7.9%,CCN(CC)CCNC(=O)c1ccc(Cl)c(S(=O)(=O)Nc2ccc(Cl)cc2)c1
-24.2%,CCN(CC)C(=O)C1CCN(S(=O)(=O)c2cccc3nonc23)CC1
u,CCc1cc(-c2n[nH]c(=S)n2-c2cccc(C)c2)cs1
-9.9%,CCOC(=O)c1c(C)[nH]c2ccc3c(c12)CN1CCc2cc(OC)ccc2[C@@H]1O3
u,CCN1CCN(c2cc(C)c3cc(NC(=O)c4ccccc4F)ccc3n2)CC1
-21.4%,Cc1cc(Nc2ccccc2)nn1C(=O)c1ccc([N+](=O)[O-])cc1
-3.0%,CCOc1ccccc1NC1=NCC(=O)N1Cc1ccc(F)cc1
-11.7%,S=C(NCc1ccccn1)Nc1ccccc1Cl
-12.5%,COc1ccc2nc(NC(=O)CCN3C(=O)c4ccccc4C3=O)sc2c1
-10.2%,CCC(=O)n1nc(NCc2ccccc2OC)nc1NCc1ccccc1OC
-13.7%,O=C(Nc1nnc(CCN2CCOCC2)s1)C1CCCCC1
-7.0%,CCOC(=O)c1c(NC(=S)NC(=O)c2ccc(Cn3cc(Cl)cn3)o2)sc2c1CCCCC2
-11.8%,O=C(CSc1nc2ccsc2c(=O)n1Cc1ccccc1)NCc1ccco1
-23.2%,CCCc1cc(C(=O)Nc2cc(OC)c(Cl)cc2OC)no1
-7.8%,O=C(CC1Sc2ccccc2NC1=O)OC(C(=O)NCCc1ccccc1)c1cccnc1 (stereo unspecified)
-11.3%,O=C(O)CCC(=O)Nc1ccccc1C(=O)Nc1ccccc1
-10.2%,Clc1ccc(CSc2nnc([C@@H]3CCCN3)o2)cc1
-2.0%,CCCCn1nnc(NC(=O)CC23CC4CC(CC(C4)C2)C3)n1
u,COc1cc2c(=O)n(Cc3ccccc3)c(=O)n(CC(=O)NCC3CCCO3)c2cc1OC (stereo unspecified)
u,N#Cc1c(F)cccc1N1CCOCC1
-7.1%,O=C(O)C1CCC(=O)N(C2CCCCC2)C1c1ccccc1 (stereo unspecified)
-19.6%,CC(/C=C/c1ccc2c(c1)OCO2)=N\NC(=O)c1cccc([N+](=O)[O-])c1
-7.0%,Cc1ccc(-c2csc3ncnc(Cl)c23)cc1
20µM*,O=C(NC(=S)Nc1cc(-c2nc3ccccc3[nH]2)ccc1Cl)c1ccc2c(c1)OCO2

# (listing goes on)
HPGD block,structure
-13.2%,CCOC(=O)C1=C(C)Nc2ncnn2C1c1ccc2c(c1)OCO2 (stereo unspecified)
u,C=CC1=C(C)C2=NC1=CC1=NC(=CC3=NC(=CC4=NC(=C2)C(C)=C4CCC(=O)O)C(CCC(=O)O)=C3C)C(C=C)=C1C.[Zn]
-20.2%,CC1CCN(S(=O)(=O)c2cc(Cl)ccc2Br)CC1
-17.2%,C/C(=N/NC(=O)c1ccc2nc[nH]c2c1)c1cccs1

# 3 of the compounds above, with bars between the fields:
smiles | HPGD block
CCOc1ccccc1NC(=O)c1ccc(S(=O)(=O)N(C)C)cc1 | -17.5%
Cc1c(C(=O)Nc2nnc(C(F)(F)F)s2)oc2ccccc12 | -24.1%
CC(C)COc1cccc(C(=O)Nc2ccc(S(=O)(=O)N3CCOCC3)cc2)c1 | -17.3%
